Compound activity as filed in PubChem.
Biofilm kill mix = mixture kills Candida albicans biofilm cells | C. albicans biofilm persisters + clotrimazole, fluorescence viability; primary screen in compound mixtures of four per well | inhibition, % at 7.6 µM | actives 0.02% (n = 120,000) | AID 1242;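 active means inhibition above 30.3% in the primary screen of four-compound pools, then above 30% when the compound was retested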;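 further: compounds exposed to preformed 24 h biofilms for 48 h; the number belongs to the whole pool; some results filed as inactive read as strong as hits; inactives centre near 12; 0% = biofilm with clotrimazole alone and 100% = kill control; retested singly at about 60 µM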
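Incubation: 24 h biofilm formation, then 48 h compound exposure, 37 °C | Material: C. albicans biofilms | Buffer or medium: RPMI/MOPS medium, pH 7.0 | Measured by: 2-h Alamar Blue fluorescence, 535/590 nm excitation/emission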
* hit, by the source's call.

SMILES	Biofilm kill mix
O=C(NN=C1CCCCCC1)c1ccc2c(c1)OCO2	-1
CCOC(=O)Cc1nnc(NC(=O)CSc2nnc3c(n2)[nH]c2ccccc23)s1	-2
CC(=O)Nc1cccc(C(=O)N/N=C/c2ccc(C)o2)c1	8
CCOc1ccc(NC(=S)NC(=O)c2c(Cl)c(C)nn2C)c([N+](=O)[O-])c1	22
Cc1ccccc1NC(=O)CSCc1nc(N)nc(Nc2ccccc2C)n1	-1
CCCCN(CC)C(=O)Cn1cnc2ccc(S(=O)(=O)N3CCC(C)CC3)cc2c1=O	1
O=C(Cc1ccc(Cl)c(Cl)c1)Nc1cccc(S(=O)(=O)N2CCOCC2)c1	6
O=C(CC1SC(=Nc2ccc(OC(F)F)cc2)N(CCC2=CCCCC2)C1=O)Nc1ccccc1F (stereo not drawn)	-3
CC(/C=C1\SC(=S)N(NC(=O)c2ccncc2)C1=O)=C\c1ccccc1	24
COc1cc(CNCCc2ccccc2)cc(Br)c1OCC(=O)Nc1ccccc1C	18
CC[n+]1c(/C=C(/C)SC)sc2ccccc21	20
COc1cc(/C=C/C(=O)O)cc(S(=O)(=O)Nc2ccccc2SC)c1OC	9
COc1nc2ccccc2nc1OC	19
CCOc1ccc(NC(=O)c2cnccn2)cc1	13
O=C(Nc1nc(-c2ccccc2)c(-c2ccccc2)s1)c1ccc(S(=O)(=O)N2CCCCC2)cc1	7
CCOc1cc(CNCC2CCCN2CC)cc(Cl)c1OC (stereo not drawn)	0
COc1ccc(-c2nc3ccc(C)cn3c2NCc2ccc3c(c2)OCO3)cc1	22
Cc1c(C(=O)c2ccc(Cl)c(Cl)c2)cnc2cc3c(cc12)OCO3	13
CCCC(=O)Nc1sc(C(=O)Nc2cccc(N)c2)c(C)c1C(=O)OC	24
C[N+](C)(C)CCOP(=O)([O-])OC[C@H](O)CO	10
COC(=O)c1ccc2c(c1)NC(=O)C(N(CC(C)C)CC(C)C)S2 (stereo not drawn)	5
Cc1ccc(CNC(=O)C2CC2c2ccccc2)cc1 (stereo not drawn)	11
Cc1ccccc1N=C1c2cc([N+](=O)[O-])ccc2-c2ncccc21	-2
FC(F)(F)c1cccc(Nc2nc(N3CCCC3)nc(N3CCCC3)n2)c1	8
CC(C)(C)CC(C)(C)c1ccc(OCC(=O)N/N=C/c2ccc(S(=O)(=O)O)o2)cc1	12
Continued:
SMILES	Biofilm kill mix
CCC(CO)NCc1ccccc1OC(C)C (stereo not drawn)	15
C=C(C)Cn1c(SCC(=O)N/N=C/c2ccccc2)nc2ccccc2c1=O	11
O=C1c2ccccc2NC(c2cccc(O)c2)N1Cc1ccco1 (stereo not drawn)	12
Cc1ccc(N(C(=O)c2ccco2)C2C=CS(=O)(=O)C2)cc1 (stereo not drawn)	0
COc1ccc(C(CCNCc2ccccc2)c2ccc(F)cc2)cc1 (stereo not drawn)	13
C#CCOCCOCCOCCNc1nc(N2CCN(C(=O)C(Cc3ccc(O)cc3)n3cc(C(N)C(C)CC)nn3)CC2)nc(N2CCN(C(=O)C(Cc3ccc(O)cc3)n3cc(C(N)C(C)CC)nn3)CC2)n1 (stereo not drawn)	13
CCOC(=O)C1=C(c2ccccc2)NC(=O)NC1c1ccc(N(C)C)cc1 (stereo not drawn)	7
COc1ccc(NC(=O)C2CC(=O)N/C(=N/NC(=O)c3ccc(Cl)cc3)S2)cc1 (stereo not drawn)	18
COc1ccc(NC(=O)COc2ccc(C(=O)NC3CCCc4ccccc43)cc2OC)cc1 (stereo not drawn)	12
COc1ccc(CCNC(=O)CCN2C(=O)c3cccc4cccc(c34)C2=O)cc1OC	22
Cc1cc(-c2csc(N)n2)c(C)n1-c1ccccc1	18
CCCCC1CCC(C(=O)N2CCOCC2)CC1 (stereo not drawn)	8
CSc1ccc2c(c1)N(CCC1CCCCN1C)c1ccccc1S2 (stereo not drawn)	20
Cc1[nH]c(=O)[nH]c(=O)c1S(=O)(=O)N(CC(C)C)CC(C)C	20
CCCCCCN(C(=O)CCCCCN1C(=O)NC(c2ccc(-c3ccccc3)cc2)C(C(=O)OCc2ccccc2)=C1C)C(C(=O)NCCCC)c1cccc(C(=O)OC)c1 (stereo not drawn)	17
CC(C)(C)c1cc(NC(=O)NN2CCOCC2)nn1-c1c(Cl)cc(Cl)cc1Cl	6
CCOC(=O)c1c(NC(=O)C2C3C=CC(C3)C2C(=O)O)sc2c1CCC(C)C2 (stereo not drawn)	21
N#CCCn1nc(-c2ccc([N+](=O)[O-])cc2)cc1Nc1ccccc1NC(=O)C(F)(F)F	8
CC(C)C(c1nnnn1Cc1ccc(F)cc1)N1CCC(C(N)=O)CC1 (stereo not drawn)	9
COC(=O)N/N=C/c1ccc(-c2cc(Cl)ccc2Cl)o1	-6
CC(C)Oc1ccc(C2CCC(=O)NC2=O)cc1 (stereo not drawn)	13
CCCn1c(N)c(C(=O)CN2CCc3ccccc3C2)c(=O)n(C)c1=O	16
CCN1C(=O)/C(=C2/C(=O)N3c4c(cc(OC(C)=O)cc42)C(C)=CC3(C)C)SC1=S	10
Cc1cc(C)nc(NS(=O)(=O)c2ccc(N/C=C/C(=O)c3ccc(Cl)cc3)cc2)n1	6
CCOC(=O)C1=C(C)NC(=O)NC1c1ccccc1 (stereo not drawn)	16

Part of the list above in order of length of the SMILES, low to high:
SMILES	Biofilm kill mix
COc1ccc(C(CCNCc2ccccc2)c2ccc(F)cc2)cc1 (stereo not drawn)	13
CC(C)(C)c1cc(NC(=O)NN2CCOCC2)nn1-c1c(Cl)cc(Cl)cc1Cl	6
C#CCOCCOCCOCCNc1nc(N2CCN(C(=O)C(Cc3ccc(O)cc3)n3cc(C(N)C(C)CC)nn3)CC2)nc(N2CCN(C(=O)C(Cc3ccc(O)cc3)n3cc(C(N)C(C)CC)nn3)CC2)n1 (stereo not drawn)	13

A run of entries from the list above, for reference:
SMILES	Biofilm kill mix
CCCn1c(N)c(C(=O)CN2CCc3ccccc3C2)c(=O)n(C)c1=O	16
CCN1C(=O)/C(=C2/C(=O)N3c4c(cc(OC(C)=O)cc42)C(C)=CC3(C)C)SC1=S	10
Cc1cc(C)nc(NS(=O)(=O)c2ccc(N/C=C/C(=O)c3ccc(Cl)cc3)cc2)n1	6
CCOC(=O)C1=C(C)NC(=O)NC1c1ccccc1 (stereo not drawn)	16

Continued.
SMILES	Biofilm kill mix
COc1ccc(C(=O)NNC(=O)CN2CCN(c3nc(-c4ccccc4)cs3)CC2)cc1	8
CCO[C@H]1OC(C(=O)N2CCCCCCC2)=C[C@@H](C)[C@@H]1CCCO	5
Cc1ccc(S(=O)(=O)N2CCCCC2)cc1NC(=O)COC(=O)C1CC2C=CC1C2 (stereo not drawn)	16
CN(C)CC(CCC(CN(C)C)C(=O)c1ccccc1)C(=O)c1ccccc1 (stereo not drawn)	18
Oc1ccc(N=Nc2ccc3c(c2)OCO3)c2ccccc12	22
O=C(Nc1ccccc1)Nc1csc2ccccc12	24
CCN(CC)c1ccc(NC(=O)COC(=O)/C=C/c2nc3ccccc3s2)cc1	7
COC(=O)C1=C(C)N(c2cc(C)cc(C)c2)/C(=C/c2ccc(O)cc2)C1=O	17
S=C(NCc1ccccc1)NNc1nc2ccccc2[nH]1	9
O=C(c1ccc(-n2cnnn2)cc1)N1CCCCC1	13
Cc1cc(C)c2c(n1)sc1c(=O)n(Cc3ccc(F)cc3)cnc12	7
CC(=O)Nc1sc(N/N=C/c2ccc(O)cc2)nc1-c1ccc(C)cc1	18
CCN(CC)c1ccc(C=Nc2ccc(C)cc2)c(O)c1	4
O=c1[nH][nH]c(-c2ccccc2)c1C=Nc1ccc(F)cc1F	18
CCCCN(C(=S)Nc1ccc(F)cc1)c1c(N)n(CCC)c(=O)[nH]c1=O	20
O=C(/C=C/c1ccco1)Nc1ccc(Cl)c(S(=O)(=O)N2CCOCC2)c1	14
CC(C)C1OC2(C)OC(=N)C1(C#N)C(C#N)(C#N)C2c1ccccc1 (stereo not drawn)	25
O=C(CC1C=Cc2ccccc2N1C(=O)c1ccccc1)c1ccccc1 (stereo not drawn)	22
Cc1ccc(-c2csc(=S)[nH]2)cc1	13
CCN(CC)S(=O)(=O)c1ccc(C(=O)NCc2ccc3c(c2)OCO3)cc1	14
O=C(N/N=C\c1ccc2c(c1)OCO2)c1ccc(Cn2cc(Br)c([N+](=O)[O-])n2)o1	2
CC(C)(C)NC(=O)Cc1ccc(Cl)c(Cl)c1	18
COc1ccc(-c2cc(=O)c3ccccc3[nH]2)cc1	16
CCOC(=O)c1cnc2ccc(OCC)cc2c1NCc1cccnc1	-13
CCCC1=[N+](CC(=O)c2ccc(Br)cc2)CCn2cccc21	22

Next part (4 carried over from the part before).
SMILES	Biofilm kill mix
CC(C)(C)NC(=O)Cc1ccc(Cl)c(Cl)c1	18
COc1ccc(-c2cc(=O)c3ccccc3[nH]2)cc1	16
CCOC(=O)c1cnc2ccc(OCC)cc2c1NCc1cccnc1	-13
CCCC1=[N+](CC(=O)c2ccc(Br)cc2)CCn2cccc21	22
O=S(=O)(c1cccc2cccc(Cl)c12)N1CCCC1	10
COc1ccccc1C(C)NCC(=O)Nc1ccccc1C(F)(F)F (stereo not drawn)	17
CCn1c(=O)c([N+](=O)[O-])c(NCCN(C)C)c2ccccc21	19
O=C(COC(=O)c1cc(=O)[nH]c2ccccc12)NCc1cccs1	10
CCn1c(C)nc2cc(C(=O)N/N=C/c3cccc(OC)c3O)ccc21	15
COc1cc(/C=N/NC(=O)c2ccc(Cl)cc2)ccc1OCC(=O)N1CC(C)OC(C)C1 (stereo not drawn)	17
CC(=O)N(C)c1ccc(NC(=O)Nc2ccc(C)c(C)c2)cc1	2
CC(/C=C/c1ccc(O)cc1)=N/O	16
O=C(NC1CCCc2ccccc21)c1n[nH]c(=O)c2ccccc12 (stereo not drawn)	13
Cc1ccc(C2C=NN(c3ccccc3)C2=O)cc1 (stereo not drawn)	25
O=C(Nc1nnc(CCN2CCCCC2)s1)c1ccc(Cl)cc1Cl	20
CCC(C)C(NC(=O)c1ccc(Cl)cc1)C(=O)Nc1cccnc1 (stereo not drawn)	16
CC(=O)N/C(=C/c1ccc2c(c1)OCO2)C(=O)NCC(=O)O	13
COCc1cc(C)nc(Oc2ccccc2)c1C#N	11
CCOCC(=O)N(CC)Cc1ccccc1	9
CCN1/C(=C\C(=S)Nc2ccccc2)Sc2ccccc21	4
CC(=Nc1ccccc1)C1=C(O)CCCC1=O	6
CCCC12CN3CCN(CC(C3)/C1=N\NC(=O)Nc1ccccc1)C2	13
Cc1nn(-c2ccccc2)c(C)c1-c1cc(C(=O)N/N=C/c2cccnc2)[nH]n1	12
O=C(O)c1ccc(N/N=C/c2ccc(OC(=O)c3cccc(Cl)c3)cc2)cc1	17
O=C(Nc1ccccc1)C1=C[C@H](c2csc3ccccc23)C[C@H](OCc2ccc(CO)cc2)O1	17
COCCn1cnc2c(c1=O)c1nc3ccccc3nc1n2/N=C/c1ccc(OC)c(OC)c1	15
O=[N+]([O-])c1cccc(C2=NCCS2)c1	14
CN(C)C(=O)N1CCNCC1	18
Cc1ccc(Oc2nc3ccccn3c(=O)c2/C=C(\C#N)C(=O)Nc2c(C)n(C)n(-c3ccccc3)c2=O)c(C)c1	1

Part of the list above, as comma-separated lines:
smiles,Biofilm kill mix
CCOc1ccc(NC(=S)NC(=O)c2c(Cl)c(C)nn2C)c([N+](=O)[O-])c1,22
Cc1ccccc1NC(=O)CSCc1nc(N)nc(Nc2ccccc2C)n1,-1

Remaining list, next part
SMILES	Biofilm kill mix
Cc1ccc(CN2CCN(C3CCCC3)C(CCO)C2)s1 (stereo not drawn)	14
COc1cc(C2NC(=S)NC(C)=C2C(=O)c2ccccc2)ccc1O (stereo not drawn)	9
CC(=O)c1sc(-c2ccccc2)cc1NS(=O)(=O)c1ccccc1	21
CC(=O)Nc1ccc(Oc2cnccn2)cc1	20
COc1ccc2c(c1)[nH]c1c(=O)n(/N=C/c3ccc(OC)c(CN4CCCCC4)c3)cnc12	14
COc1cc2c(=O)c(-c3ccc(O)cc3)coc2cc1OC1OC(CO)C(O)C(O)C1O (stereo not drawn)	18
COc1ccc(/C=C/C(=O)NCCc2nc3ccccc3[nH]2)cc1	17
CCCCNC1=NCCS1	18
CCOC(=O)c1c(C)[nH]c(N=Nc2ccc(OC)cc2)c1C	21
CC(C)=CCC/C(C)=C/C=N/NC(=O)c1ccc([N+](=O)[O-])cc1	5
CCC(C)(C)NC(=O)C(Sc1ccccc1)c1ccccc1 (stereo not drawn)	11
CCOc1cc(C2/C(=C(/O)c3ccc(OC)cc3)C(=O)C(=O)N2CC2CCCO2)ccc1O (stereo not drawn)	21
COc1ccc(N2C(=O)NC(NC(=O)c3cccnc3)(C(F)(F)F)C2=O)cc1 (stereo not drawn)	11
COc1ccc(/C=C2\N=C(c3ccccc3)NNC2=O)cc1	16
Cc1ccc(Nc2nc(NCCCN3CCOCC3)nc(N)c2[N+](=O)[O-])cc1	15
Cc1ccc2[nH]c(=O)c(Cc3ccccc3)c(O)c2c1	17
CCOc1ccc(CNC(=O)CCCc2cn(C)c3ccccc23)cc1OC	19
O=C(CN(Cc1cccs1)C(=O)CNS(=O)(=O)c1ccccc1)NC1CCCC1	16
COc1ccc(C(=O)Nc2ccc(Oc3ncnc4sc(-c5ccccc5)cc34)cc2)cc1OC	7
CCN1CCN(CC(=O)N2N=CCC2c2ccccc2)CC1 (stereo not drawn)	-7
CCCC(=O)Nc1c(-c2ccccc2)c(=O)c(C)nn1-c1ccccc1	3

The list is partial; the hit share may differ from the screen's.
